LASV entry inh = Lassa virus entry inhibition; Potency, µM (top dose mostly 49.2 µM), for inactives: top-dose activity change, negative = inhibition, usual class: inhibitors; Lassa virus pseudotyped entry inhibition, cell-based qHTS; control for the full effect not named in the record; many of its hits are not listed in these tables; actives 4.1% (n = 18,000); active = well fitted inhibition curve with a large enough effect; inconclusive = small, poorly fitted or top-dose-only effect; inactive = no such curve, though single readings can be large or run the other way; tested in HEK293 cells; further: luciferase read-out
Marburg entry = Marburg virus entry inhibition | Marburg virus pseudotype entry/binding inhibition, cell-based; control for the full effect not named in the record; many of its hits are not listed in these tables | Potency, µM (doses to about 49.2 µM), without a hit: at the highest dose activity change, negative = inhibition, usual class: inhibitors | actives 6.5% (n = 18,000); active means well fitted inhibition curve with a large enough effect; inconclusive means small, poorly fitted or top-dose-only effect; inactive means no such curve, though single readings can be large or run the other way; tested in HEK293 cells; further: luciferase read-out
Numbers without * were called inactive; ? = inconclusive; . = not tested or not shown; & = joins results of further samples; ! = a repeat was not active; [ ] = dose if it differs, or a comment. On the % scale 0 is the no-effect control and ±100 the full control effect; potency means the concentration at half of the fitted maximal effect.

| molecule | LASV entry inh | Marburg entry |
| --- | --- | --- |
| C[C@H](NC(=O)[C@@H](N)Cc1ccc(O)cc1)C(=O)NCC(=O)N[C@H]1CSSC[C@@H](C(=O)O)NC(=O)[C@H](CO)NC(=O)[C@H]([C@@H](C)O)NC(=O)[C@H](Cc2ccccc2)NC(=O)[C@H]([C@@H](C)O)NC(=O)[C@H](CCCCN)NC(=O)[C@@H](Cc2c[nH]c3ccccc23)NC(=O)[C@H](Cc2ccccc2)NC(=O)[C@H](Cc2ccccc2)NC(=O)[C@H](CC(N)=O)NC(=O)[C@H](CCCCN)NC1=O | 4% | -14% |
| O=C(C1CCCCC1)N1C[C@H](O)[C@H](n2cc(C3CC3)nn2)C[C@@H]1c1ccc(Cl)cc1 | -19% | -36% |
| CN1c2ccccc2[C@@]2(O)C(=O)[C@@]1(C)[C@H]1Cc3ccccc3[C@H]12 | -19%[8.59 µM] | 0%[8.59 µM] |
| NCCO/C=C/[C@H](N)C(=O)O | -2% | 10% |
| Cc1nc(NCc2ccc3nsnc3c2)sc1-c1ccn(C)n1 | 2% | -9% |
| CC(C)(C)OC(=O)N1CCC(C(=O)Nc2ccc(C(=O)NC3CC3)cc2)CC1 | 6% | 7% |
| CCC(=O)OC1(C)C(=O)C=C2C=C(CCCCNC(=O)OC(C)(C)C)OC=C2C1=O (stereo not given) | 3% | -8% |
| NC1(C(=O)O)CCCC1 | -4% | 3% |
| COCCCNC(=O)c1cnn(-c2ncc3c(n2)-c2ccccc2CCC3)c1C | 41%[activator] | 43%[activator] |
| O=c1cccc2n1CC1CNCC2C1 (stereo not given) | -7%&2% | 6%&-7% |
| Cc1c(C(=O)NCC(C)(C)N2CCOCC2)cnn1-c1ncc2c(n1)-c1ccccc1CC2 | -4% | -28% |
| C/C=C/c1ccc2c(c1)OCO2 | -9%&-1% | 2%&5% |
| COc1c2c(cc3c1OCO3)C13C=CC(OC)CC1N(C2)CC3O (stereo not given) | 2% | 5% |
| COc1ccccc1-c1cncnc1Nc1ccc(F)cc1 | -1% | 7% |
| COC(=O)C/C=C/[C@@H](C)[C@H](O)c1ccccc1Br | -2% | 6% |
| CC[C@@H]([C@H](C)O)n1ncn(-c2ccc(N3CCN(c4ccc(OC[C@@H]5CO[C@@](Cn6cncn6)(c6ccc(F)cc6F)C5)cc4)CC3)cc2)c1=O | ? | ? |
| COc1ccccc1N1CCN(c2nc(CNC(=O)c3ccccc3F)nc3ccccc23)CC1 | ? | ? |
| COc1ccc(C(=O)NCc2nnc(SC)n2-c2ccccc2C)c(OC)c1OC | -6% | -1% |
| CCN1\C(=C/C=C/C=C/c2sc3ccccc3[n+]2CC)Sc2ccccc21 | 11µM* | 7.1µM* |
| COCc1c(C(=O)NC2CCCC2)cnn1-c1nccc(-c2ccco2)n1 | 23% | 12% |
| CC(=O)OC[C@H](N)C(=O)c1ccccc1 | 0% | 30%[activator] |
| COC(=O)C1=C(C(=O)OC)[C@@H]2N(Cc3ccccc3)c3ccccc3[C@@]23C[C@@H](C(=O)OC)N(C(=O)Nc2ccccc2F)C3=N1 | -20%[8.59 µM] | -13%[8.59 µM] |
| CC(C)C1C(=O)N(Cc2cn(Cc3ccco3)nn2)CCS(=O)(=O)N1Cc1ccc(-c2ccc(Cl)cc2)cc1 (stereo not given) | . | ? |
| C=C1CC[C@H](O)CC1=C/C=C1\CCC[C@]2(C)[C@@H]([C@H](C)/C=C/[C@H](C)C(C)C)CC[C@@H]12 | ? | -18% |
| O=S1(=O)C[C@H](N2CCN(CC3CC3)CC2)[C@@H](COCc2ccccc2)N1 | 15% | 31%[activator] |
| CCCCCCCCCCCCCCCC(=O)O[C@H](CC(=O)O)C[N+](C)(C)C | ? | 9% |
| CCCCC[C@H](O)/C=C/[C@@H]1[C@H](C/C=C\CCCC(=O)O)[C@@H](O)C[C@H]1O | -17%&-12% | 2%&13% |
| C=CC[C@@H]1C=C[C@H](ON=C2c3cc(OC)ccc3O[C@H](c3cccc(OC)c3)[C@@H]2O)[C@H](CO)O1 | -4%[8.59 µM] | -5%[8.59 µM] |
| CN(C)Cc1ccccc1-c1nccc(N(C)C)n1 | -20% | -17% |
| CC(=C\c1ccccc1)/C=C1/SC(=S)N(CC(=O)O)C1=O | -20% | -17% |
| Fc1ccc(C(OCCN2CCN(CCCc3ccccc3)CC2)c2ccc(F)cc2)cc1 | 14µM*! | 7.9µM* |
| COC1=CC2C(=O)C(C(c3ccccc3)C2C)C1(C)O (stereo not given) | -11%[8.59 µM] | 1%[8.59 µM] |
| CN(C)Cc1ccccc1-c1nc(N(C)Cc2ccco2)c2ccccc2n1 | 0% | ? |
| CCCCCCCCC#CCC#CCC#CCCCC(=O)O | 7%&-4% | 2%&18% |
| C=C[C@H](N)CCC(=O)O | -7% | ? |
| CCCCCCCCCCCCC[N+](C)(C)Cc1ccccc1 | 18µM* | 8.9µM* |
| COc1ccc2c(c1)c(CC(=O)N1CCOCC1)c(C)n2C(=O)c1ccc(Cl)cc1 | 2%&-12%&-18% | 14%&-8%&-28% |
| O=C(c1ccco1)N(Cc1cc2cc3c(cc2nc1N1CCOCC1)CCC3)CC1CCCO1 (stereo not given) | 4% | -16% |
| C[C@@H]1CC2=CCCC2[C@]2(O1)C(=O)Nc1cccc(Br)c12 (stereo not given in full) | 19%[8.59 µM] | 1%[8.59 µM] |
| CCOC(=O)CNc1oc(-c2ccccc2)nc1-c1ccccc1 | -16% | 1% |
| CC(C)(COP(=O)(O)OP(=O)(O)OC[C@H]1O[C@@H](n2cnc3c(N)ncnc32)[C@H](O)[C@@H]1OP(=O)(O)O)C(O)C(=O)NCCC(=O)NCCS (stereo not given in full) | -3% | 17% |
| CCn1c(-c2nonc2N)nc2cncc(C(=O)N3CCNCC3)c21 | -55% | 5% |
| C=C(C)CC(C)(C)C | -9% | 4% |
| COC(=O)C(Cl)C(=O)OC | 6% | -25% |
| CC(=O)O[C@](C)(CCC=C(C)C)C1CC=C(C)CC1 (stereo not given in full) | -7% | 9% |
| CCCCC/C=C\C/C=C\CCCCCCCCCC(=O)NCCO | 6% | 0% |
| COCC#CCN1CCCCC1c1cccnc1 (stereo not given) | 9% | -2% |
| C[C@@H]1O[C@@H](O[C@H]2CC[C@]3(C=O)C4CC[C@]5(C)[C@@H](C6=CC(=O)OC6)CC[C@]5(O)[C@@H]4CC[C@]3(O)C2)[C@H](O)[C@H](O)[C@H]1O (stereo not given in full) | 0.11µM* | 0.1µM* |
| C=C1CCC(OC(C)=O)/C(C)=C/CC2[C@H]1CC2(C)C (stereo not given in full) | -15% | -21% |
| COc1ccccc1-c1ccnc(-n2ncc(C(=O)N[C@H]3CCCCNC3=O)c2C2CC2)n1 | -8% | -27% |
| C[C@@H]1C(c2cccc(Cl)c2)=NN(c2ccc(Br)cc2)[C@H]1C(=O)N1CCOC1=O | -9% | -1% |
| Nc1ncnc2c1ncn2[C@@H]1O[C@H](CO)[C@@H](O)[C@H]1O | -2%&4% | 12%&13% |
| CC(=O)OC1CCC2(C)C(=CCC3C2CCC2(C)C3C[C@@H]3O[C@]32C(C)=O)C1 (stereo not given in full) | -10% | 10% |
| NC(=O)C1CCCN(Cc2ccc3c(c2)CN(Cc2ccccc2)CCO3)C1 (stereo not given) | 9% | ? |
| CC(C)CCNC(=O)CNC(=O)[C@@H](C)NC(=O)[C@@H](N)Cc1ccc(O)cc1 | -13% | 2% |
| CCCCC1=CC2=C(c3ccco3)C(=O)C(C)(OC(=O)c3ccc(OC)cc3)C(=O)C2=CN1CCN1CCOCC1 (stereo not given) | -5%[8.59 µM] | -11%[8.59 µM] |
| C[C@H]1CC[C@H]2C(=O)N(Cc3ccc(Cl)cc3)C[C@@H](O)CN2[C@H]1c1ccc(Br)cc1 | -9%[8.59 µM] | ? |
| C/C(=C\CNc1ncnc2c1ncn2[C@@H]1O[C@H](CO)[C@@H](O)[C@H]1O)CO | -1% | 18% |
| Cc1cccc(/C=C\c2ccccc2)n1 | ? | ? |
| COc1ccc(OC)c(-c2cc(Cl)c3c(c2)CC(CNC(=O)c2coc4c2C(=O)CCC4)O3)c1 (stereo not given) | -10% | -9% |

(continued)
| molecule | LASV entry inh | Marburg entry |
| --- | --- | --- |
| O=C(NC1CCCCC1)c1cn(CCN2CCOCC2)c2cc(Cl)ccc2c1=O | -10% | 3% |
| COc1ccccc1CN1CCOc2ccc(C(C)(O)CN(C)C)cc2C1 (stereo not given) | -5% | ? |
| CCOC(=O)C1=C(c2ccccc2)c2ccc(OC)cc2N(S(=O)(=O)C(F)(F)F)C1C(=O)OCC (stereo not given) | ? | -24% |
| COC(=O)C1=C(C(=O)OC)[C@@H]2Nc3ccccc3[C@@]23C[C@@H](C(=O)OC)N=C3N1 | . | 2%[8.59 µM] |
| CC12CC3(O)OC(O1)C1(COC(=O)c4ccccc4)[C@@H]3CC21O[C@@H]1O[C@H](CO)[C@@H](O)[C@H](O)[C@H]1O | 9% | -16% |
| COC(=O)c1ccccc1C(=O)NCc1nc(N2CCCC2)c2cccc(C)c2n1 | -9% | -10% |
| CCN1CCC(C(=O)Nc2n[nH]c3nnc(-c4cccc(F)c4F)cc23)CC1 | . | -42% |
| CC1(C)OC2C(CO)OC(n3cnc4c(=O)[nH]c(N)nc43)C2O1 (stereo not given) | 3% | 9% |
| O=C(CCCN1CCC(O)(c2cccc(C(F)(F)F)c2)CC1)c1ccc(F)cc1 | ? | ? |
| Cc1cc(C(=O)NCc2nc(-c3ccccc3NC(=O)C3CCCO3)oc2C)nc(C)n1 (stereo not given) | -19% | -19% |
| CCCCC | -8% | 6% |
| COC(=O)c1c(OCc2cccnc2)cc(=O)n2c1CCN(Cc1cc3c(cc1Cl)OCO3)CC2 | -20% | -19% |
| C[C@H](NC(=O)/C(C#N)=C/c1ccc(O)c(O)c1)c1ccccc1 | -19% | -20% |
| CCCCC/C=C\C/C=C\C/C=C\CCCCCCC(=O)NCCc1ccc(O)c(O)c1 | 2% | 7% |
| Cc1ccsc1C(=O)N(Cc1cc2ccc(F)cc2nc1N1CCC(O)CC1)CC1CCCO1 (stereo not given) | -18% | -3% |
| O=C(O)C(S)C(S)C(=O)O (stereo not given) | ? | ? |
| Cc1ccc(C2CC(=O)Oc3ccc(O)cc32)cc1 (stereo not given) | -10% | 4% |
| NC(CSCC(=O)O)C(=O)O (stereo not given) | -24% | 13% |
| CC(C)(O)C1O[C@H]2CC[C@@]3(C)[C@@](O)(CC[C@H]4Cc5c([nH]c6ccccc56)[C@@]43C)C2=CC1=O (stereo not given in full) | 32µM*! | ? |
| Cc1[nH]c2c(C(=O)NCC3Cc4cccc(-c5cccnc5)c4O3)cccc2c1C (stereo not given) | -10% | 35%[activator] |
| COc1ccccc1CNC(=O)c1ccc(Br)o1 | -13% | 7% |
| CCCS(=O)(=O)NCc1c(C)ncc2c1CCN(C(=O)c1cccc(C(F)(F)F)c1)C2 | -14% | -18% |
| COc1ccccc1CNc1ncncc1-c1ccccc1CN(C)C | -22% | ? |
| CC1=CC[C@@]2(CO)COC(c3ccccc3O)C1C2 (stereo not given in full) | ? | 42%[activator] |
| CC(C)=CCC[C@]1(C)[C@@H](CC=C(C)C)C[C@@]2(CC=C(C)C)C(=O)[C@]1(C(=O)C(C)C)C(=O)C(CC=C(C)C)=C2O | 13µM* | 16µM* |
| CC(CCC(=O)OC[C@H]1O[C@H](C#Cc2ccccc2)C=C[C@H]1Oc1ccc(C)cc1)=NO[C@H](C)c1cn([C@@H]2COC[C@@H]2O)nn1 | . | 0%[8.59 µM] |
| Cc1cccc(CNc2ccnc(-c3cccnc3)n2)c1 | -1% | -14% |
| c1csc(CNc2ncnc3ccc(-c4ccc5c(c4)OCO5)cc23)c1 | -26% | -34% |
| O=C1OCCN1C(=O)[C@H]1[C@H](c2ccc(Cl)cc2)C(c2ccccc2)=NN1c1ccc(Br)cc1 | -20% | ? |
| NC1(c2ccccc2)CCCCC1 | -14% | ? |
| CN(C)CC/C=C1/c2ccccc2Sc2ccc(Cl)cc21 | ? | 18µM* |
| COC(=O)C1=C(C(=O)OC)[C@@H]2N(C)c3ccc(OC)cc3[C@@]23C[C@@H](C(=O)OC)N(C(=O)c2cc(C)oc2C)C3=N1 | . | -25%[8.59 µM] |
| COC(=O)c1cccc(-c2cc(Cl)c3c(c2)CC(CNC(=O)c2cccnc2)O3)c1 (stereo not given) | -10% | -10% |
| CCOC(=O)C(C#N)=C(c1ccccc1)c1ccccc1 | -20% | -4% |
| O=C(c1n[nH]c2c1CCCC2)N1CCOc2ccc(C(O)C3CCCCC3)cc2C1 (stereo not given) | 8.9µM* | 11µM* |
| COc1c(C2=CC(=O)N(C)C2=O)c2c(n1C)C(=O)c1ccccc1C2=O | -24% | 20µM* |
| NC[C@H](CP(=O)(O)O)c1ccc(Cl)cc1 | -12% | 9% |
| COc1ccc(NC(=O)C2CC23CCN(Cc2cccc4ncccc24)CC3)cc1Cl (stereo not given) | -29% | 1% |
| CC(C)(C)c1ccc(O[C@@H]2[C@H](O)CO[C@H]2C=CC#Cc2ccccc2)cc1 | 7%[8.59 µM] | -16%[8.59 µM] |
| C/C(=C\C(=O)OCCCCCCCCC(=O)O)C[C@@H]1OC[C@H](C[C@@H]2O[C@H]2[C@@H](C)[C@H](C)O)[C@@H](O)[C@H]1O | 6% | 15% |

Fetched one by one from above:
| molecule | LASV entry inh | Marburg entry |
| --- | --- | --- |
| COc1c(C2=CC(=O)N(C)C2=O)c2c(n1C)C(=O)c1ccccc1C2=O | -24% | 20µM* |
| CC(=O)O[C@](C)(CCC=C(C)C)C1CC=C(C)CC1 (stereo not given in full) | -7% | 9% |
| CC(C)(COP(=O)(O)OP(=O)(O)OC[C@H]1O[C@@H](n2cnc3c(N)ncnc32)[C@H](O)[C@@H]1OP(=O)(O)O)C(O)C(=O)NCCC(=O)NCCS (stereo not given in full) | -3% | 17% |
| CC(=C\c1ccccc1)/C=C1/SC(=S)N(CC(=O)O)C1=O | -20% | -17% |

Rows are unselected. Share with any hit: about 8.2%.
